V. cholerae QS: Vibrio cholerae quorum sensing activators, luminescence (AID 686977); V. cholerae quorum sensing reporter, luminescence, 6 h; higher luminescence means a stronger effect; most inactives read 0; luminescence at 50 µM unless noted, or EC50 in µM where a hit was titrated; 9,400 tested, under 10 active;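 active = light above mean plus 3 SD and confirmed in a dose series; inconclusive = above that limit without a clear retest; inactive = below it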;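 also: raw light counts without normalisation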
Numbers without * were called inactive; ? = inconclusive; [ ] = another dose, or the depositor's remark. This is a subset. The share of hits here may be higher or lower than overall.

molecule | V. cholerae QS
O=C(Nc1ccc(Cc2ccncc2)cc1)c1ccc(Cl)c([N+](=O)[O-])c1 | 0
CCc1ccc(/C(C)=N\Nc2ccc([N+](=O)[O-])cc2)cc1 | 40
Cc1onc(-c2ccccc2Cl)c1C(=O)Nc1nnc(-c2ccc(Br)cc2)s1 | 0
CCN(CC)CC#CCOC(=O)C(O)(c1ccccc1)C1CCCCC1 (configuration not stated) | 0[10 µg/mL]
O=C(O)c1ccc(-n2c(-c3ccc(Br)cc3)n[nH]c2=S)cc1 | 0
COc1ccc(-n2c(Cn3c(=O)sc4ccccc43)nnc2SCC(=O)N2CCCCC2)cc1 | 0
COc1cccc2c(=O)n(CC(=O)Nc3ccc(F)cc3)ccc12 | 0
CC(=O)NC(CCS(C)(=O)=O)C(=O)Nc1ccccc1 (configuration not stated) | 0
Cc1cc(C)c(COCc2cc(/C=N/O)c(C)cc2C)cc1/C=N/O | 40
CC1CCN(C(=O)CCc2ccc(S(=O)(=O)NC(C)C)cc2)CC1 | ?
N#C/C(=C(/O)Cc1cccc2ccccc12)c1nc2ccccc2s1 | 0
O=C(Oc1ccc(-c2cnc3ccccc3n2)cc1)c1ccco1 | 160
O=C(CSc1ncnc2nc[nH]c12)N1CCOCC1 | 40
Cc1cc(NC(=O)C2CCCN(S(=O)(=O)c3c(C)noc3C)C2)n[nH]1 (configuration not stated) | 0
CCn1cc(SCC(=O)N2CCOCC2)c2ccccc21 | 40
CCN1CCN(CC(=O)NC2CCCCC2)C(=O)C1=O | 0
CCCCOC(=O)C1CCC[C@@H](C)N1 (some centres not stated) | 0
CCOC(=O)c1sc2ncn(/N=C/c3cccnc3)c(=O)c2c1C | 80
CC(=NCC1CCNCC1)C1=C(O)CC(C)(C)CC1=O | 0
O=C(Cn1nc(Cc2ccncc2)c2ccccc2c1=O)N1CCc2ccccc2C1 | 0
CC[N+](C)(CC)CCC[n+]1c(-c2ccccc2)c2cc(N)ccc2c2ccc(N)cc21 | 0[10 µg/mL]
COc1cccc(/C=N\NC(=O)c2sc(N)nc2C)c1OC | 0
COc1ccc(C(=O)NCCn2ccc3ccccc32)cc1 | 0
CC1=C(C(=O)NCc2ccccc2)C(c2cccnc2)n2ncnc2N1 (configuration not stated) | 400
CC(=O)c1c(N2CCOCC2)nc(=S)n(Cc2ccccc2)c1C | 80
O=C(O)CN1C(=O)COc2cc(S(=O)(=O)N3CCCC3)ccc21 | 0
CSc1nc(-c2ccco2)nn1C(=O)c1ccc(Cl)cc1 | 0
CCn1c(=O)c2cc(C(=O)Nc3cc(C)on3)sc2c2ccccc21 | 0
CCCn1c(NCc2ccco2)nc2ccccc21 | ?
Cn1ncc([N+](=O)[O-])c1C(=O)Nc1ccc(-c2nc3ccccc3[nH]2)cc1 | 0
COc1cc(C(=O)NCC(c2cccnc2)N2CCN(c3ccccc3)CC2)cc(OC)c1OC (configuration not stated) | 0
Cc1onc(-c2ccccc2Cl)c1C(=O)NCc1ccc(N2CCCC2=O)cc1 | 0
O=C(COC(=O)c1ccccn1)Nc1ccc(S(=O)(=O)N2CCOCC2)cc1 | 0
COc1c2ccoc2nc2c(OC)c(OC[C@@H](O)C(C)(C)O)ccc12 | 40[10 µg/mL]
CCOC(=O)c1oc2cc(O)c(CC)cc2c(=O)c1-c1ccc2c(c1)OCCO2 | 40
CCOC(=O)c1sc(NC(=O)c2ccco2)nc1-c1ccccc1 | 0
COc1cccc(CNC(=O)C2CCCN(S(=O)(=O)c3cnc[nH]3)C2)c1 (configuration not stated) | 0
CCc1nc2ccc(C)cc2c(C(=O)NC2CCCCC2C)c1C (configuration not stated) | 0
O=C(N[C@H](CO)[C@H](O)c1ccc([N+](=O)[O-])cc1)C(Cl)Cl | 0[10 µg/mL]
Cc1c(Cl)cccc1NC(=O)COc1ccc(S(=O)(=O)N2CCOCC2)cc1 | 40

Four entries already listed, ordered by formula weight, descending:
molecule | V. cholerae QS
CC[N+](C)(CC)CCC[n+]1c(-c2ccccc2)c2cc(N)ccc2c2ccc(N)cc21 | 0[10 µg/mL]
CC1=C(C(=O)NCc2ccccc2)C(c2cccnc2)n2ncnc2N1 (configuration not stated) | 400
CCc1nc2ccc(C)cc2c(C(=O)NC2CCCCC2C)c1C (configuration not stated) | 0
COc1ccc(C(=O)NCCn2ccc3ccccc32)cc1 | 0

(cont.)
molecule | V. cholerae QS
CCCCn1c(SCC(=O)NCC2CCCO2)nc2ccc(N3CCOCC3)cc2c1=O (configuration not stated) | 0
Cc1cc(S(=O)(=O)Nc2ccc3ccccc3c2)c(C)s1 | ?
O=c1cc(N2CCN(c3ccccc3F)CC2)[nH]c(=O)n1-c1ccc(Br)cc1 | 0
C[C@@H]1C[C@@H]([C@H](O)CC2CC(=O)NC(=O)C2)C(=O)[C@@H](C)C1 | ?
CC1N(C)c2cc(NC(=O)c3ccco3)ccc2C1(C)C (configuration not stated) | 40
COc1cc(-c2nnc(SCc3c(F)cccc3Cl)o2)cc(OC)c1OC | 0
CC1CCN(C(=O)CSc2nnc(Cc3cc(=O)[nH]c(=O)[nH]3)n2-c2ccc(Cl)cc2)CC1 | 40
Cc1ccc(C)c(N2CCN(C(=O)c3cc4ccccc4oc3=O)CC2)c1 | 40
CN(Cc1ccccc1)C(=O)COC(=O)c1ccc2c(c1)OCO2 | 0
COc1ccc(OC)c(-n2c(SCC(=O)N3CCc4ccccc43)nc3c(c2=O)SCC3)c1 | 0
CC1=C(C(=O)OC2CCCCC2)C(c2ccco2)n2ncnc2N1 (configuration not stated) | 40
C=CCNc1nc(N)c(C(=C(C#N)C#N)c2ccccc2)s1 | 0
Cn1c(=O)c2c(SCC(N)=O)nc(CC(C)(C)C)nc2n(C)c1=O | 0
CCOC(=O)CN1NC2(CCC(C)CC2)NC1=S (configuration not stated) | 40
CC1(C)S[C@@H]2[C@H](NC(=O)[C@H](N)c3ccc(O)cc3)C(=O)N2[C@H]1C(=O)O | 0[10 µg/mL]
O=C(CSc1nnc(Cn2c(=O)sc3ccccc32)n1-c1ccccc1)Nc1nccs1 | 0
Cc1ccc(N=CC2=C(O)CC(C)(C)CC2=O)nc1 | 0
COc1ccc(NC(=O)CSc2nc(O)cc(=O)n2C)cc1 | 0
O=C(c1cc(-c2cccs2)nc2ccccc12)N1CCN(S(=O)(=O)c2cccc(F)c2)CC1 | 0
Cn1cnnc1SCC(=O)Nc1ccccc1C(=O)NC1CC1 | 0

Rewritten field by field: part of the list above
molecule: O=C(CSc1nnc(Cn2c(=O)sc3ccccc32)n1-c1ccccc1)Nc1nccs1
  V. cholerae QS: 0
molecule: CC1N(C)c2cc(NC(=O)c3ccco3)ccc2C1(C)C (configuration not stated)
  V. cholerae QS: 40
molecule: CCOC(=O)CN1NC2(CCC(C)CC2)NC1=S (configuration not stated)
  V. cholerae QS: 40
molecule: C[C@@H]1C[C@@H]([C@H](O)CC2CC(=O)NC(=O)C2)C(=O)[C@@H](C)C1
  V. cholerae QS: ?

Carrying on:
SMILES	V. cholerae QS
CCN1CCN(Cc2nc3c(c(=O)n(C)c(=O)n3C)n2Cc2ccccc2Cl)CC1	40
Cc1ccc2c(c1)NC(=O)C(CC(=O)NCCCN1CCN(c3cc(C)ccc3C)CC1)O2 (configuration not stated)	0
CCOC(=O)N1CCC(NC(=O)COc2cc(=O)n(C)c3ccccc23)CC1	0
CSc1nc(-c2ccco2)nn1C(=O)c1ccco1	0
c1ccc2[nH]c(CN3CCCCC3)nc2c1	0
CCOC(=O)C1CCN(C(=O)CCNC(=O)Cn2ccc3ccccc3c2=O)CC1	0
CCn1c(=O)n(CC)c2cc([N+](=O)[O-])ccc21	0
COc1ccccc1N1CCN(S(C)(=O)=O)CC1	40
CCN1CCN(c2cc(C)c3cc(NC(=O)Cc4ccc(OC)c(OC)c4)ccc3n2)CC1	0
CC1(C)N(OCc2ccccc2)C(=O)C(=O)N(OCc2ccccc2)C1(C)C	?
CCOc1ccc(CCNC(=O)Cn2c(=O)oc3ccccc32)cc1OCC	0
CCOC(=O)c1cccc(NC(=O)C2CCC(CNc3c(N4CCOCC4)c(=O)c3=O)CC2)c1 (configuration not stated)	0
C=C1c2c(Cl)ccc(O)c2C(O)=C2C(=O)[C@]3(O)C(O)=C(C(N)=O)C(=O)[C@@H](N(C)C)[C@@H]3[C@@H](O)C12 (some centres not stated)	0[10 µg/mL]
Cc1ccc(N(C)C(=O)N2CCN(S(=O)(=O)c3ccc(C)c(C)c3)CC2)cc1	0
CN(N=O)C(=O)N[C@@H]1[C@@H](O)[C@H](O)[C@@H](CO)O[C@@H]1O	0[10 µg/mL]
O=C(Nc1cnc2sc3c(n2c1=O)CCCC3)c1ccc(F)cc1	0
CC(=O)C1=NN(c2ccccc2)C(c2cccs2)N1c1ccc(N(C)C)cc1 (configuration not stated)	0
COc1ccc(Cn2c(=O)[nH]c3cc(C(=O)N4CCN(Cc5ccccc5)CC4)ccc3c2=O)cc1	0
CC(=O)C1=C(O)C(=O)N(c2ccc(C(=O)O)cc2)C1c1ccccc1 (configuration not stated)	0
Cc1ccccc1-n1c(Cn2c(=O)sc3ccccc32)nnc1SCC(=O)N1CCOCC1	0
O=C(COc1ccc(S(=O)(=O)NC2CCCCC2)cc1Cl)N1CCN(c2ccccc2)CC1	0
CNS(=O)(=O)c1ccc(NC(=O)C(CCSC)NC(N)=O)cc1 (configuration not stated)	0
CCC(C)C(NC(=O)c1ccc(Cl)cc1)C(=O)O (configuration not stated)	0
CCCNC(=S)N1CCC(c2nc3cc(C)c(C)cc3[nH]2)CC1	0
O=C(O)CCc1nn2cnc3sc4c(c3c2nc1=O)CCCC4	0
O=C(c1ccc(Cl)cc1)N(Cc1cccs1)C1CCS(=O)(=O)C1 (configuration not stated)	?
N/C(=N\OC(=O)c1ccccc1Cl)c1ccc(Cl)cc1	0
O=S(=O)(Nc1ccc(Cc2ccncc2)cc1)c1ccc(Cl)c(Cl)c1	40
CCOC(=O)c1sc2ncnc(N3CCN(c4ccc(OC)cc4)CC3)c2c1C	0
O=C(NCc1ccc(Cl)cc1)c1cccnc1	40
CCCCSc1nc(C)nc2c1c(=O)n(C)c(=O)n2C	0
CCOC(=O)c1c(C)c(C(=O)N2CCc3ccccc3C2)c(C)n1CC	0
COc1cccc(CN(Cc2ccco2)C(c2ccc(F)cc2)c2nnnn2C(C)(C)C)c1 (configuration not stated)	0
CCOC(=O)c1c2n(c3c(NCc4ccccc4)ncnc13)CCCC2	40
COc1ccc(NC(=O)CCCn2c(=S)[nH]c3ccccc3c2=O)cc1	0
CCOC(=O)C1CCCN(c2ccc(NC(=O)c3snc4c(=O)[nH]cnc34)cc2)C1 (configuration not stated)	0
COC(=O)c1ccc(NC(=O)C2CCCN(S(=O)(=O)c3cnc[nH]3)C2)cc1 (configuration not stated)	0
N#CCCN1CCN(S(=O)(=O)c2ccc(S(=O)(=O)NC3CC3)cc2)CC1	0
Cc1ccc(CN2C(=O)CCC2C(=O)NCCCN2CCCC(C)C2)cc1 (configuration not stated)	0
CCN[C@H]1C[C@H](C)S(=O)(=O)c2sc(S(N)(=O)=O)cc21	0[10 µg/mL]
CCOC(=O)C1=C(C)Nc2ncnn2C1c1ccc(N(C)C)cc1 (configuration not stated)	0
CCOC(=O)CSc1nc(C)cc(C)c1C#N	40
Cc1nc(SCC(=O)c2c[nH]c3ccccc23)n[nH]1	40
C[n+]1ccccc1/C=N/O	0[10 µg/mL]
COc1ccccc1OCC(=O)N(Cc1nc(-c2ccc(Cl)cc2)no1)C(C)C	40
Cc1onc(-c2ccccc2)c1C(=O)N1CCN(C/C=C/c2ccccc2)CC1	0
COc1cc(-c2nc3cnccn3c2Nc2ccccc2)ccc1O	280
Cc1ccc2cc(C#N)c(NCCCNC(=O)C3CCCO3)nc2c1 (configuration not stated)	0
CCCCOC(=O)c1ccc(NC(=O)c2cc(Cl)ccc2OC)cc1	0
O=C(NCc1cccnc1)C1CC(=O)N(CCc2ccccc2)C1 (configuration not stated)	0
CCCOc1nc(N)c(C#N)c(-c2ccccc2F)c1C#N	0
O=C(c1ccc2c(c1)OCO2)N1CCN=C1SCc1ccccc1	0
CCOC(=O)CSC1=C(C#N)C(c2ccccc2OCC)C(C(=O)OCC)C(=O)N1 (configuration not stated)	0
COc1ccc(Cl)cc1S(=O)(=O)NCc1cccnc1	0
Cc1cnc(C(=O)OCC(=O)NCc2ccccc2)cn1	0
COc1ccc(-c2cc(C(F)F)n3ncc(C(=O)NCCCN4CCCC4=O)c3n2)cc1	0
COc1ccc(C2N(c3cc(Cl)ccc3OC)C(=O)C3CCCN32)cc1OC (configuration not stated)	0
CC(=O)c1c(C)[nH]c(C(=O)NCCCN2CCCC2)c1C	40
Cc1ccccc1-c1nc2ccccc2c(=O)n1C1CCS(=O)(=O)C1 (configuration not stated)	0
Cc1cc(C)cc(NC(=O)CSc2nc3c(c(=O)n2C)SC(C)C3)c1 (configuration not stated)	0

Later entries
SMILES	V. cholerae QS
COc1ccc(CN2C(=O)c3ccccc3C2C(=O)NCC2CCCO2)c(OC)c1 (configuration not stated)	0
CN1C(=O)CCS(=O)(=O)C1c1ccc(Cl)cc1 (configuration not stated)	40[10 µg/mL]
Cn1cc(SCC(=O)Nc2ccc3c(c2)OCCO3)c2ccccc21	0
O=C(C1CCCN1S(=O)(=O)c1cccc2cccnc12)N1CCc2ccccc2C1 (configuration not stated)	0
COC(=O)CC1Oc2ccc(C)cc2NC1=O (configuration not stated)	40
NC(=O)C1(N2CCCCC2)CCN(S(=O)(=O)c2cc(Cl)ccc2Cl)CC1	0
C=CCOc1ccc(CNn2cn[nH]c2=S)cc1OCC	40
CCOc1ccc(CC(=O)N2CCN(c3ccc(N4CCOCC4)nn3)CC2)cc1OCC	40
O=C(Nc1ccccc1[N+](=O)[O-])C1C(c2ccccc2)=C1c1ccccc1	40

Rewritten with each value named: 3 of the compounds above.
O=C(CSc1ncnc2nc[nH]c12)N1CCOCC1
- V. cholerae QS: 40

Cc1onc(-c2ccccc2)c1C(=O)N1CCN(C/C=C/c2ccccc2)CC1
- V. cholerae QS: 0

O=C(CSc1nnc(Cn2c(=O)sc3ccccc32)n1-c1ccccc1)Nc1nccs1
- V. cholerae QS: 0
